# High-throughput results as filed in PubChem.
# RanGTP-Impb inh – inhibitors of RanGTP-importin-beta interaction, primary screen, biochemical, FRET, CFP-Ran, YFP-importin-beta, homogeneous; 300,000 compounds, 1.1% hits; cell-free CFP-Ran/YFP-importin-beta FRET ratio; inhibition, % (no concentration beside the values);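 active = most replicates above 15%; inconclusive = exactly half above 15%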;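 note: 0% = DMSO wells and 100% = Ran loaded with GDP instead of GTP; wells of about 40 µL received 100 nL stock; the first replicate is given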
# Vif A3G – inhibitors of Vif binding to APOBEC3G peptide, primary screen, biochemical, TR-FRET, GST-Vif 1-94, biotin-A3G peptide, dose response retest (AID 1117319) | inhibition, %; hits with a dose series show IC50 in µM | 260,000 compounds, 0.57% hits | TR-FRET GST-Vif / biotin-A3G peptide binding; higher % means a stronger effect; test concentration not given here; strong numbers were not always called active;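 active = above the screen mean plus three standard deviations and confirmed in dose response; inconclusive = results disagree or hit not tested in dose response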;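 note: Vif residues 1-94 fused to GST binding biotinylated APOBEC3G peptide 110-148; 0% = full assay without inhibitor and 100% = GST in place of GST-Vif; retest series ran down from 100 µM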
# FGF22 binding – binders of recombinant human FGF22 by thermal shift. Q9HCT0. SYPRO orange fluorescence; percent of sucrose octasulfate shift, DMSO zero. calls only at 9.99 µM. 340,000 compounds, 1.5% hits. AID 651658;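 active = melting point raised past a set limit in the mean and every replicate; inconclusive = no clear call; three in four hits are not shown here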
# Target sequence (Q9HCT0 whole entry, looked up): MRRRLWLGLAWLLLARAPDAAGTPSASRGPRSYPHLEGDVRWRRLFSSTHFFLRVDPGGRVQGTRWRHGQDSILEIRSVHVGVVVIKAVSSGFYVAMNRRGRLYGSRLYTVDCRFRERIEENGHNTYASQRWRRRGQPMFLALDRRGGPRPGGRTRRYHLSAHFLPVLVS
# HNF4A DNA FP – change in binding of human HNF4 alpha to DNA. P41235. HNF4a-FITC DNA binding, fluorescence polarization, 1 h. activity change, % at 10 µM. 360,000 compounds, 0.3% hits. AID 1224865; in the data active = activity change above about 30%, passing the limit was not always enough;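 note: controls were the assay level and a saturating level of protein; the project sought stronger binding though the title names inhibitors; some compounds called inactive have numbers as strong as hits; positive values seem to mean higher polarization but the record does not say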
# Target sequence (P41235 whole entry, looked up): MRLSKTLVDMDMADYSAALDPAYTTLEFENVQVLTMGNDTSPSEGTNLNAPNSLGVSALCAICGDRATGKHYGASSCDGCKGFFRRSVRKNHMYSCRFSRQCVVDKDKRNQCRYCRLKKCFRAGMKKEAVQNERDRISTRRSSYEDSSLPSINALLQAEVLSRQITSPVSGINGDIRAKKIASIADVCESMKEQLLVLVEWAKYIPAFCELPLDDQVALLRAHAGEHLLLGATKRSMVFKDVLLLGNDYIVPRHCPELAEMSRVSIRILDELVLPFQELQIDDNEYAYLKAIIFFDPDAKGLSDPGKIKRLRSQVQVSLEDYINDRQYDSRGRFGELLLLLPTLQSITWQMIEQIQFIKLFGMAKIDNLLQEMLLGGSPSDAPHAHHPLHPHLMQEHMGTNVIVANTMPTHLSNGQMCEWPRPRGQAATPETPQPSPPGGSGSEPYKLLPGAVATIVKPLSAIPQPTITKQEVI
# E coli growth – blocks Escherichia coli growth | OD600, 23 h; active compounds read low | AID 1053175 | OD600 absorbance (concentration not given with the values) | 330,000 compounds, 0.21% hits;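 active = OD600 absorbance below the run mean of sample wells minus 3.6 SD, in any replicate, cut at about 0.56 in these data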;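 note: stock transfer was 300 nL into about 60 µL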
# MLL AF4-AF9 inh – blocks AF4 peptide binding to human AF9 | AlphaScreen, biotin-AF4 peptide binding to FLAG-AF9 | inhibition, % at 10 µM | 350,000 compounds, 0.47% hits;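 active = every replicate reaching a set inhibition limit, whatever the replicate mean, cut at about 25% in these data; inconclusive = mean inhibition reaches that limit but some replicates miss it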;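 note: 0% = plate neutral control median and 100% = total signal loss; the record names both 10 and 1 µM as test concentration; the first replicate is given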
# UCH37 inh – human UCH37 deubiquitinating enzyme inhibition; AID 588478; purified proteasome/UCH37, Ub-AMC cleavage fluorescence; Q9Y5K5; 330,000 compounds, 0.33% hits; inhibition, % (test concentration not listed);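 active = mean of two replicates above 20%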;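 note: 0% = compound-free wells with enzyme and 100% = wells lacking proteasome; stock transfer was 100 nL into about 20 µL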
# Target sequence (Q9Y5K5 whole entry, looked up): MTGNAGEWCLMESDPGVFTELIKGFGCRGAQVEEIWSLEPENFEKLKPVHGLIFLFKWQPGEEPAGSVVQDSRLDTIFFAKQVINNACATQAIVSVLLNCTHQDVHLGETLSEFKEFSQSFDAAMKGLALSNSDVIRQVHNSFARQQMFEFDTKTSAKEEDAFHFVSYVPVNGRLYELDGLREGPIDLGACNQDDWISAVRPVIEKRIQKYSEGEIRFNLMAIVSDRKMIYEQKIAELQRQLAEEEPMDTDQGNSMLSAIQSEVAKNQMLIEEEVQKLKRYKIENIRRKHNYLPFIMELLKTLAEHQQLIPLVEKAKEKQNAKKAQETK
#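 Schedule: 30 min plus 25 min, room temperature / Material: human UCH37 within purified proteasomes / Technique: AMC fluorescence intensity at 355/460 nm / Buffer or medium: pH 7.4 Tris-HCl (50 mM) with ovalbumin, ATP-MgCl2, DTT / Controls: wells without proteasome as full block, compound-free enzyme plus substrate as uninhibited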
# The depositor's hits bear a star; i = inactive; ? = inconclusive; / = no result given; + = active, no number; & = joins results of further samples. This is a subset; the hit share may differ from the screen's.
SMILES,RanGTP-Impb inh,Vif A3G,FGF22 binding,HNF4A DNA FP,E coli growth,MLL AF4-AF9 inh,UCH37 inh
COCCCC1CCN(C(=O)c2cc(COc3cc(C)ccc3C)on2)CC1,6.9,/,i,-1.2,0.69,-1.5,1.0
CC(C)(C)C(=O)Oc1ccc2cc(-c3ccc4ccccc4n3)c(=O)oc2c1,28*,/,i,12,0.7,-3.8,-253
CCN(C[C@H]1N[C@@](Cc2ccccc2)(C(=O)OC)[C@H]2C(=O)N(C)C(=O)[C@@H]12)C(=O)Nc1ccc(F)cc1,/,-3%,i,-2.2,0.69,-5.4,4.1
Cc1ccc(C)c(NC(=O)CSc2nc(C)cc(C)c2C#N)c1,2.9,-95%,/,-0.6,0.71,/,-0.6
CCn1c(CCc2ccccc2)nc2ccccc21,?,-4%,i,2.3,0.69,-3.6,0.6
COc1ccc(N(C)S(=O)(=O)c2ccc3c(c2)oc(=O)n3C)cc1,-2.0,-3%,/,1.2,0.67,/,-1.6
O=C(O)c1ccccc1C(=O)Nc1cccc([N+](=O)[O-])c1,2.1,/,i,0.8,0.65,-2.5,0.8
CCOC(=O)N1CCN(C(=O)c2ccc(Cn3c(=S)[nH]c4cc(C(=O)OC)ccc4c3=O)cc2)CC1,0.3,5%,i,0.0,0.75,-4.9,0.4
Cc1cc(C)n(CCNS(=O)(=O)c2ccc(Cl)cc2)n1,2.3,/,i,8.8,0.68,-2.2,-0.6
c1nnnn1C12CC3CC(CC(C3)C1)C2,2.4,4%,/,0.8,0.67,/,4.8
COc1ccc(CNC(=O)CN(C(=O)CCC(=O)Nc2ccccn2)c2ccccc2OC)cc1,-0.8,5%,/,0.2,0.69,/,1.5
CC(=O)c1ccc(N2CCN(c3ccc(S(=O)(=O)NCCN(C)C)cc3[N+](=O)[O-])CC2)cc1,2.3,-3%,i,-4.2,0.65,-1.3,10
CC(C)CC[n+]1ccn(-c2nc3ccccc3nc2[N-]S(=O)(=O)c2ccccc2)c1,2.6,-3%,/,-0.3,0.7,/,-100
CCOc1ccc(/C=N/NC(=O)c2ccc(CSc3nc4ccccc4[nH]3)cc2)cc1,-2.9,1%,i,2.4,/,-3.8,/
Cc1[nH]n(C(N)=S)c(=O)c1N=Nc1ccc(Cl)cc1Cl,-5.1,/,i,0.9,0.63,1.7,15

# Rewritten as tab-separated lines: part of the list above.
SMILES	RanGTP-Impb inh	Vif A3G	FGF22 binding	HNF4A DNA FP	E coli growth	MLL AF4-AF9 inh	UCH37 inh
CCOC(=O)N1CCN(C(=O)c2ccc(Cn3c(=S)[nH]c4cc(C(=O)OC)ccc4c3=O)cc2)CC1	0.3	5%	i	0.0	0.75	-4.9	0.4
Cc1cc(C)n(CCNS(=O)(=O)c2ccc(Cl)cc2)n1	2.3	/	i	8.8	0.68	-2.2	-0.6
c1nnnn1C12CC3CC(CC(C3)C1)C2	2.4	4%	/	0.8	0.67	/	4.8
COc1ccc(CNC(=O)CN(C(=O)CCC(=O)Nc2ccccn2)c2ccccc2OC)cc1	-0.8	5%	/	0.2	0.69	/	1.5

# Next part
SMILES,RanGTP-Impb inh,Vif A3G,FGF22 binding,HNF4A DNA FP,E coli growth,MLL AF4-AF9 inh,UCH37 inh
O=C(N/N=C/c1cccc(O)c1)c1ccc(COc2ccc3c(c2)CCC3)o1,2.3,15%,/,0.1,/,/,/
O=C(CSc1ncn[nH]1)c1ccc2c(c1)OCCO2,-1.3,1%,/,1.7,0.74,/,0.5
CCc1ccc(C(=O)Nc2cc3c(cc2Cl)OCCCO3)cc1,5.4,7%,/,0.2,0.69,/,2.1
O=C(Cn1nnc2ccccc2c1=O)NCc1ccc(Cl)cc1,-5.4,8%,i,-4.6,0.66,0.5,1.4
COc1ccc(COC(=O)C2CCN(S(=O)(=O)c3ccc(C)cc3)CC2)cc1,2.7,-2%,/,-1.9,0.66,1.2,-0.2
O=C(NCCC(c1ccccc1)c1ccccc1)c1cccs1,-3.4,/,/,-3.0,0.68,/,1.1
Cc1noc(C)c1C(=O)N1CCc2ccccc2C1,0.4,>100µM*,/,0.7,0.65,/,5.9
Cc1ccc(NS(=O)(=O)c2cc(NC(=O)c3cc(=O)[nH]c(=O)[nH]3)ccc2Cl)c(C)c1,4.7,?,i,-2.6,0.7,0.2,3.4
O=C(CN1C(=O)C2CC=CCC2C1=O)Nc1ccc(S(=O)(=O)NC2=NCCCCC2)cc1 (stereo unspecified),-4.6,-3%,/,1.1,0.7,/,-2.6
CN1CCN(C(=O)C2=C[C@H](c3ccc4c(c3)OCO4)C[C@H](OCCCCO)O2)CC1,0.7,/,i,2.4,/,-5.9,-0.2
CCCCOc1ccc(C2C3CN(C(=O)OCC)CC=C3C(C#N)=C(N)C2(C#N)C#N)cc1OC (stereo unspecified),-0.3,11%&-6%,i,10,0.74,-104,3.1
COc1ccc(NC2CCCN(C(=O)c3ccccc3C(F)(F)F)C2)cc1 (stereo unspecified),-4.1,/,i,-7.1,0.7,1.3,3.0
CCN1CCN(CC(=O)Nc2nc3ccccc3s2)CC1,8.7,/,i,0.8,0.67,-0.2,2.8
Cc1ccc(C2=CC(c3ccccc3)n3ncnc3N2)c(C)c1 (stereo unspecified),19*,/,i,0.8,0.7,0.2,-0.4
CCC1CCCCN1C(=O)COc1ccc2c(c1)OCO2 (stereo unspecified),-1.8,/,i,1.2,0.66,-2.0,1.9
CCOCCCN(C)C1CCN(C(=O)c2oc3ccccc3c2NC(=O)c2cccc([N+](=O)[O-])c2)CC1,2.3,/,i,5.8,0.68,5.6,1.5
Cc1ccc(N=Cc2ccc(N(C)C)cc2)cc1C,1.0,1%,i,-1.6,0.69,-1.4,9.0
COc1ccccc1NC(=O)N1CCN(c2cccc(C(F)(F)F)c2)CC1,?,?,/,-4.4,0.71,/,3.8
CCOc1ccc(S(=O)(=O)NCCC(=O)N2CCCN(C)CC2)cc1,-4.5,2%,i,-1.2,0.7,-1.6,3.3
COc1ccc2c(c1)c(=O)oc1c(C)c(OCc3ccc(C(=O)O)cc3)ccc12,-0.4,2%,/,-9.7,/,/,/
O=C(NCc1cccnc1)Nc1ccccc1F,1.9,2%,/,-1.6,0.71,/,1.4
COc1cccc2[nH]c3c(N4CCC(C)CC4)ncnc3c12,0.2,?,i,-3.5,0.67,-13,-59
S=C(NNC(=S)Nc1ccccc1)Nc1ccccc1,-0.1,/,i,-3.9,0.62,-3.4,3.3
COc1ccccc1OCCC(=O)O,-0.4,?,i,1.9,0.69,-1.0,1.3
CCOC(=O)N1CCN(C(=O)COC(=O)c2ccc(O)cc2O)CC1,2.7,/,i,0.1,0.7,0.2,2.2
CN(C)c1ccc(C(=O)c2ccc(O)cc2O)cc1,1.5,0%,/,-1.2,0.73,/,5.6
COCCN(C(=O)COC(=O)/C=C/c1ccc(OC)c(OC)c1)c1c(N)n(Cc2ccccc2)c(=O)[nH]c1=O,1.1,-2%,i,-2.6,0.67,6.7,-39
COC(=O)c1cc(C)nc2c1C(=O)C(=O)C=C2N1CCOCC1,-2.7,/,i,2.6,0.67,-3.2,100*
NC1=NC(=O)/C(=C/c2cccs2)S1,1.4,10%,/,-0.1,0.67,/,17
CC(=O)C1=C(c2ccccc2)NC(=O)NC1c1ccccc1OCC(=O)NCc1ccccc1 (stereo unspecified),-1.8,18%,/,2.6,0.72,/,1.5
O=C(Nc1nc2cc3c(cc2s1)OCCO3)c1ccc(N2C(=O)CCC2=O)cc1,?,-9%,i,-0.3,0.7,-7.3,-51
CN(CC(=O)NCc1ccc(F)cc1)S(=O)(=O)c1cccc2nsnc12,3.9,19%,/,-2.8,0.7,/,1.7
CC(=O)c1ccc(N2CCN(S(=O)(=O)c3ccccc3)CC2)c(F)c1,4.9,-37%,i,-0.3,0.66,-0.6,0.5
COc1ccc(-c2n[nH]c3c2CN(C(=O)c2ccc(OC)c(OC)c2)CC3)cc1,0.4,/,i,2.3,0.7,-5.0,0.1
Cc1ccc([C@@H]2CC(=O)[C@@H]3CN(S(=O)(=O)c4ccc(C)cc4)[C@H](c4cccc5ccccc45)C[C@@H]3N2S(=O)(=O)c2ccc(Cl)cc2)cc1,/,0%,i,1.9,/,1.6,/
O=C(Nc1cccs1)Nc1c(F)c(F)c(F)c(F)c1F,-6.1,?,i,1.4,0.57,4.1,-0.4
COCCCn1c(SCC(=O)Nc2oc(C)c3c(C)n[nH]c(=O)c23)nc2ccccc2c1=O,-0.1,-3%,i,-0.1,0.7,-1.2,7.5
CCOc1ccccc1N1CCN(Cc2c(C)n(C)n(-c3ccccc3)c2=O)CC1,0.6,-8%,/,2.1,0.73,/,-1.3
CC(C)OC(=O)c1ccc(Cn2nnc3ccccc3c2=O)cc1,0.7,23%,/,-2.2,0.68,/,-1.2
Cc1ccc(C(=O)N/C(=C\c2ccc(-c3cccc([N+](=O)[O-])c3)o2)C(=O)NCCCN2CCOCC2)cc1,4.7,/,i,0.2,0.68,6.8,15
COc1ccc(S(=O)(=O)NCCc2cn3nc(C)c(C)nc3n2)cc1C,11,1%,i,0.7,0.71,-2.5,-271
CC1(c2cccc(Br)c2)NC(=O)N(CC(=O)Nc2ccc(S(N)(=O)=O)cc2)C1=O (stereo unspecified),-0.5,/,i,0.8,0.68,0.9,0.9
C[C@H](CO)N1C[C@H](C)[C@H](CN(C)S(=O)(=O)c2ccccc2)OCc2ccccc2-c2c(n(C)c3ccccc23)C1=O,/,-5%,i,2.7,/,-0.9&2.1,/
CCOC(=O)[C@@H]1[C@H]2COc3cc(OC)ccc3[C@H]2N2C(=O)N(c3ccc(C)cc3)C(=O)[C@]12C,/,/,+,1.4,/,/,0.3
O=C(CCNC(=O)c1ccccc1Cl)NCc1ccco1,/,1%,i,-2.8,0.68,-6.8,2.5
CCOC(=O)CCSc1cc(C)c2ccccc2n1,-2.6,/,i,3.2,0.67,2.2,0.6
C#CCOc1ccc(C2C3=C(CCCC3=O)N(CC(=O)O)C3=C2C(=O)CCC3)cc1Br,117*,23%,i,-4.2,0.71,-5.9,i
CCOC(=O)c1oc2ccc(Br)cc2c1NC(=O)CN1CCN(C)CC1,/,3%,/,0.6,0.78,/,5.8
Clc1ccc(-c2ccccc2)nn1,2.8,-1%,i,0.1,0.66,-1.4,2.9
CC1CCC(C(=O)NNC(=O)c2cc(-c3ccco3)[nH]n2)CC1 (stereo unspecified),?,-5%,i,1.2,0.64,-18,2.8
Cc1ccc(-c2nn3c(C)nnc3s2)cc1NC(=O)c1ccc(-c2ccc(Cl)cc2Cl)o1,/,-17%,/,104*,0.73,/,-469
O=C(NC12CC3CC(CC(C3)C1)C2)c1cncc(Br)c1,3.3,/,i,2.6,0.7,0.2,0.8
Cc1cc(F)ccc1S(=O)(=O)N1CCC2(CC1)OCCN2S(=O)(=O)c1cccs1,3.1,4%,i,0.8,0.7,-28,3.1
O=C(CN1CCCCCC1)NCC1CCCO1 (stereo unspecified),0.7,/,i,2.3,0.65,-1.5,-0.5
O=C(NCc1ccccc1)C(C1CC1)n1c(CSCCOc2ccccc2)nc2ccccc21 (stereo unspecified),/,/,i,-3.5,/,-1.1,/
COc1cccc(NC(=O)COC(=O)c2ccc3ccccc3n2)c1,/,-2%,/,9.2,0.68,1.0,2.2
O=C(Cn1c(=O)oc2cc(S(=O)(=O)N3CCCC3)ccc21)NCc1ccc(F)cc1,2.5,3%,i,-0.4,0.73,2.1,5.4
CC(C(=O)NC1C=CS(=O)(=O)C1)N1C(=O)/C(=C\c2ccccc2)SC1=S (stereo unspecified),3.8,/,i,0.2,0.72,1.0,5.6
